# HCMV NEC inh: inhibitors of HCMV UL50-UL53 interaction, biochemical, HTRF. HCMV UL50-UL53 nuclear egress complex (human cytomegalovirus). normalized percent inhibition. inhibition, % (test concentration not listed). actives 0.15% (n = 190,000). AID 1918969, 2023;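 active = both replicates at 50% or more, plus weaker picks with an unusually low signal ratio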;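 also: stock transfer was 100 nL into about 20 µL; 0% = negative control wells and 100% = wells with untagged competitor protein; inactives centre near -12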
# GIV Gai3 FP: inhibitors of GIV peptide binding to Galpha-i3, primary screen, biochemical, fluorescence polarization, FITC-GIV GBA peptide, rat Galphai3 | Guanine nucleotide-binding protein G(i) subunit alpha-3 (Rattus norvegicus), P08753 | actives 0.42% (n = 210,000) | percent of control (FP), % (no concentration beside the values) | 90 min; hits give low values; scaled: aluminum fluoride 0%, vehicle 100%;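 active = replicate mean at 85% of control or lower, very high polarization wells dropped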;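 also: wells of about 15 µL received 100 nL stock; the first replicate is given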
# Target sequence (P08753 whole entry, looked up): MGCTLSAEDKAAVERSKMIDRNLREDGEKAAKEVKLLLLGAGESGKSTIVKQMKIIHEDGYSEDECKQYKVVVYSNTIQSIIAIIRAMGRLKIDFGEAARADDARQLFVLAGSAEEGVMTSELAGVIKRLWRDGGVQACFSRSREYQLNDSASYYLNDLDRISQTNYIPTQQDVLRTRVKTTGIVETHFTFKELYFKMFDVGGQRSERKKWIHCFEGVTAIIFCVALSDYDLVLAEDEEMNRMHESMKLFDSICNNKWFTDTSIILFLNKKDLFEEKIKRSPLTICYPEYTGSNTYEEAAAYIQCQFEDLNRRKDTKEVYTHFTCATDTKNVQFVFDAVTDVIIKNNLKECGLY
# Sa growth 42C: S. aureus growth inhibition at 42 and 30 °C, primary screen, LtaS inhibitor project, RN4220, two temperatures. OD600, 20 h, 42 °C; hits give low values. relative growth, % (no concentration beside the values). actives 0.53% (n = 170,000);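 active = growth at 42 °C up to 50% and 20 or more points under that at 30 °C, or under 10% at both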;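 also: 300 nL library stock went into each well; scaled to the means of positive and negative controls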
# Sa growth 42C second temp: recorded beside Sa growth 42C, whose call it bears; relative growth, %; measured here: growth at 30 °C;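 optical density after 20 h as mean of two plates; 100% = untreated growth and lower means inhibition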
# * hit, by the source's call; / = not tested or not shown; & = joins results of further samples.
No.	SMILES	GIV Gai3 FP	Sa growth 42C	HCMV NEC inh	Sa growth 42C second temp
1	O=C(NCc1ccccn1)c1ccc(N2CCCC2=O)cc1	102	105	/	87
2	CCN1CCN(c2cc(C)c3cc(NC(=O)c4cc(OC)cc(OC)c4)ccc3n2)CC1	101	85	23	85
3	COc1ccc(-c2nc(CN3CCC(C(=O)NCc4ccccc4Cl)CC3)c(C)o2)cc1OC	102	/	-9	/
4	O=c1[nH]cc(-c2nc3ccccc3s2)c(=O)[nH]1	/	102	-28	95
5	O=c1c2c3c(sc2ncn1Cc1nn[nH]n1)CCCC3	101	101	-13	89
6	O=C(CN1C(=O)CCSc2ccccc21)NCCCN1CCN(C2CCCCC2)CC1	102	97	-16	88
7	Cc1cc(C)n2nc(SCC(=O)N(C)c3c(N)n(Cc4ccccc4)c(=O)[nH]c3=O)nc2n1	/	83	14	93
8	CN1OC2C(=O)N(c3ccccc3)C(=O)C2C1c1ccc(F)cc1 (stereo unspecified)	/	68	-2	92
9	Cn1nc(OCC(=O)N2CCOCC2)cc1C(F)(F)F	99	/	-16	/
10	CN(C)/N=C/C=C1\CCC/C(=C\C=N\N(C)C)C1=O	/	80	-158	87
11	Cc1ccc(N2CC(C(=O)O)CC2=O)cc1 (stereo unspecified)	/	94	-20	86
12	CCOC(=O)c1ccc(C(=O)OCC)nc1	103	98	-33	100
13	OCCN1C[C@@H](O)[C@@H](O)C(O)C1CO (stereo partly specified)	/	86	-42	85
14	Clc1ccc(CCNC(c2ccc(Cl)cc2)c2nnc(-c3ccccc3)o2)cc1 (stereo unspecified)	106	116	-2	93
15	S=C1NCN(Cc2ccc3c(c2)OCO3)CN1	103	102	2	92

# Some entries already given, reduced to HCMV NEC inh, Sa growth 42C and GIV Gai3 FP.
no.	Compound	HCMV NEC inh	Sa growth 42C	GIV Gai3 FP
7	Cc1cc(C)n2nc(SCC(=O)N(C)c3c(N)n(Cc4ccccc4)c(=O)[nH]c3=O)nc2n1	14	83	/
6	O=C(CN1C(=O)CCSc2ccccc21)NCCCN1CCN(C2CCCCC2)CC1	-16	97	102
15	S=C1NCN(Cc2ccc3c(c2)OCO3)CN1	2	102	103
3	COc1ccc(-c2nc(CN3CCC(C(=O)NCc4ccccc4Cl)CC3)c(C)o2)cc1OC	-9	/	102
10	CN(C)/N=C/C=C1\CCC/C(=C\C=N\N(C)C)C1=O	-158	80	/

# Following part.
No.	SMILES	GIV Gai3 FP	Sa growth 42C	HCMV NEC inh	Sa growth 42C second temp
16	CC(C)Cc1ccc(S(=O)(=O)N2CCC(c3ccncc3)CC2)cc1	107	106	/	84
17	CNC(=S)Nc1ccc(OC)cc1C	107	98	2	106
18	CC(C)(C)n1ncc2c(=O)n(Cc3cccc(C(F)(F)F)c3)cnc21	101	95	/	78
19	CCn1c(C)c(C2=CCN(S(=O)(=O)c3ccc(OC)c(OC)c3)CC2)c2ccccc21	121	/	-8	/
20	CCn1c2ccccc2c2nnc(N3CCN(c4cccc(Cl)c4)CC3)nc21	99	95	-13	75
21	CC(C)c1ccc(NC(=O)CCS(=O)(=O)c2cccc3nonc23)cc1	103	114	-31	102
22	O=C(NC1CC1)C1CCN(c2ncnc3c2sc2ncccc23)CC1	104	/	0	/
23	Cc1ccc(C)c(N2CCN(C(=O)CCc3c(C)nc4c(c3C)c(=O)n(C)c(=O)n4C)CC2)c1	102	94	-38	92
24	CCOC(=O)Cc1n[nH]c(=S)n1C	/	76	-25	89
25	COc1ccc(CCNS(=O)(=O)c2ccc3[nH]c(=O)ccc3c2)cc1OC	98	78	/	91
26	CCOC(=O)N1CCC(NC(=O)c2ccc3nc(/C=C(\O)c4ccc(OC)cc4)c(=O)[nH]c3c2)CC1	99	79	-34	90
27	CCOc1ccc(CCNC(=O)c2ccc3snnc3c2)cc1	99	/	-8	/
28	CN(C)CC[n+]1ccc(C(=O)c2ccccc2)cc1	102	70	-148	97
29	CCOC(=O)c1c(C)n(C)c2c1cc(OC(=O)c1ccc(F)cc1)c1ccccc12	97	/	-17	/
30	Cc1ccc(CS(=O)(=O)CCC(=O)O)cc1	99	105	-4	88

# New compounds follow
No.	SMILES	GIV Gai3 FP	Sa growth 42C	HCMV NEC inh	Sa growth 42C second temp
31	CCOC(=O)c1sc(NC(=O)c2cc3c(C)nn(Cc4ccccc4)c3s2)nc1C	/	102	-35	95
32	Cc1nnsc1C(=O)Nc1cccnc1	99	91	-30	84
33	CCn1cc(CCCC(=O)NCc2cc(Br)ccc2OC)c2ccccc21	99	98	/	91
34	O=C(Oc1ccc2oc(-c3ccco3)cc(=O)c2c1)C1CCCCC1	104	98	-8	101
35	CNc1n[nH]c(N)c1-c1nc(-c2ccc(OC)cc2)no1	135	/	-1	/
36	Cc1ccc(NC(=O)c2sc(=S)n3c2[nH]c(=O)c2ccccc23)c(C)c1	110	4.6*	-9	2.4*
37	O=C(NC1CC1)c1cnn2c(-c3ccccc3)cc(-c3ccccc3)nc12	107	/	0	/
38	COc1ccc(C(CC(=O)Nc2ccc(C)cn2)N2Cc3ccccc3C2=O)cc1OC (stereo unspecified)	101	127	/	77
39	COc1cccc(C(=O)Nc2ccc(-c3nc4ncccc4o3)cc2)c1	100	105	-16	86
40	CC1CCCC(C)N1CC(O)Cn1c2ccccc2c2ccccc21 (stereo unspecified)	104	93	-22	85
41	O=C(C1=COCCO1)N1c2ccccc2Sc2ccccc21	/	98	-38	90
42	CCCN1CCn2c(nc3cc(Cl)ccc32)C1	98	/	-22	/
43	CCOC(=O)C1=C(CNCc2ccccc2)NC(=O)NC1c1ccccc1 (stereo unspecified)	103	94	/	86
44	CCCn1c2ccccc2c2cnn(CC(=O)N3CCN(c4ccccc4)CC3)c(=O)c21	101	104	/	95
45	COc1ccc(-c2noc(-c3cccnc3N3CCOCC3)n2)cc1	97	/	-18	/

# (continued)
No.	SMILES	GIV Gai3 FP	Sa growth 42C	HCMV NEC inh	Sa growth 42C second temp
46	C(=NC1CC1)c1ccc(-c2ccccc2)cc1	106	90	-31	86
47	O=C(NCCO)c1ccccc1-c1ccccc1	103	105	-10	93
48	O=C1Nc2ccccc2C(O)(C(=O)NCc2ccccc2)N1c1ccccc1 (stereo unspecified)	104	84	10	91
49	COC(=O)c1sc(N)c(C(=O)OC)c1COC(=O)c1ccc2c(c1)C(=O)N(Cc1ccco1)C2=O	/	101	-10	86
50	Cc1c(C(=O)NCC2(N3CCN(C)CC3)CCCCC2)oc2ccc(F)cc12	107	/	30	/
51	CCOc1ccc(-n2c(C)cc(/C=N/N(C)C)c2C)cc1	/	80	-10	59
52	COc1ccccc1N1CCN(C(=O)CSc2nnc(-c3cccnc3)o2)CC1	101	/	-22	/
53	CCCC1C2C(=O)N(c3ccccc3)C(=O)C2ON1c1ccc(Cl)c(Cl)c1 (stereo unspecified)	103	114	-36	91
54	Cc1ccc(OCC(O)CN2CCC(C)CC2)c(C)c1 (stereo unspecified)	105	109	/	86
55	CCc1nn(C(C)C(=O)NCCc2ccc(OC)c(OC)c2)c(=O)c2cc3occc3n12 (stereo unspecified)	100	92	-7	88
56	Cc1cc(-c2ccc(C(C)C)c(S(=O)(=O)NC(C)(C)C)c2)on1	102	87	-7	75
57	O=C(COc1nc2ccccc2s1)N1N=CCC1c1ccccc1 (stereo unspecified)	103	91	-19	79
58	CCCCn1c(C)cc(/C=C(\C#N)C(=O)O)c1C	/	103	-18	100
59	CC(=O)N1CCc2c(sc3c2c(=O)n(-c2ccccc2C)c(=O)n3CC(=O)c2ccccc2)C1	109	78	3	86
60	O=C(Nc1ccc(Cc2ccc(NC(=O)C3CC3)cc2)cc1)C1CC1	/	91	1	89

# In the list so far, 5 contain a thiophene ring, fused or not.
No.	SMILES	GIV Gai3 FP	Sa growth 42C	HCMV NEC inh	Sa growth 42C second temp
5	O=c1c2c3c(sc2ncn1Cc1nn[nH]n1)CCCC3	101	101	-13	89
22	O=C(NC1CC1)C1CCN(c2ncnc3c2sc2ncccc23)CC1	104	/	0	/
31	CCOC(=O)c1sc(NC(=O)c2cc3c(C)nn(Cc4ccccc4)c3s2)nc1C	/	102	-35	95
49	COC(=O)c1sc(N)c(C(=O)OC)c1COC(=O)c1ccc2c(c1)C(=O)N(Cc1ccco1)C2=O	/	101	-10	86
59	CC(=O)N1CCc2c(sc3c2c(=O)n(-c2ccccc2C)c(=O)n3CC(=O)c2ccccc2)C1	109	78	3	86

# The list goes on.
No.	SMILES	GIV Gai3 FP	Sa growth 42C	HCMV NEC inh	Sa growth 42C second temp
61	CCC1Oc2ccc(C)cc2N(CC(=O)NC(C)C)C1=O (stereo unspecified)	102	81	6	110
62	CCc1ccccc1NC(=O)Cn1nnc(C(=O)Nc2ccc(OC)c(OC)c2)c1N	101	97	/	89
63	N#Cc1ccc(Cl)cc1NC(=O)COC(=O)c1cc(-c2ccco2)nc2ccccc12	/	103	13	97
64	O=S(=O)(c1ccc(-c2cc(C(F)(F)F)on2)s1)N1CCN(c2cccc(Cl)c2)CC1	109	88	/	99
65	CC(C)c1ccc(NC(=O)C2CCN(S(=O)(=O)c3ccc(Br)s3)CC2)cc1	105	87	-16	87
66	Cc1ccc2c(cnn2C(=O)CCCC(=O)NC2CCCC2)c1	97	72	/	86
67	C=CCN(C(=O)CCc1c(C)nn(-c2ccccc2)c1C)c1nc2c(s1)CCCC2	/	120	9	95
68	Cc1cc(OC(=O)NC(=O)C(F)(F)F)c(C(C)C)cc1I	/	63	-4	66
69	Cc1cccc(N2CCN(C(=O)CC3=NS(=O)(=O)c4ccccc4N3)CC2)c1C	105	/	-5	/
70	Cc1ccccc1C1CC(=O)c2cnc3c(-c4ccccc4)c(C)nn3c2C1 (stereo unspecified)	101	/	22	/
71	C=CCn1c(=O)c(C(=O)Nc2ccccc2OCC)c(O)c2ccccc21	103	/	-36	/
72	Cc1noc(C)c1C(=O)N=c1sc2ccccc2n1C	/	15	-16	36
73	COC(=O)c1sc(NC(=O)c2csc3c2CCCC3)c(C#N)c1C	102	102	-8	88
74	O=C(NCc1ccccc1CN1CCCC1)c1csc(-c2cccs2)n1	/	93	-61	83
75	Cc1[nH]c2ccccc2c1SCCNC(=O)c1ccc(F)cc1	104	91	0	71

# More entries follow.
No.	SMILES	GIV Gai3 FP	Sa growth 42C	HCMV NEC inh	Sa growth 42C second temp
76	COc1ccc(-c2cnn3c(C(F)(F)F)cc(-c4ccccc4)nc23)cc1OC	100	/	-17	/
77	CCCn1c(=O)oc2cc(NC(=O)Nc3ccc(C)c(C)c3)ccc21	109	/	18	/
78	O=C(CCc1ccccc1)Nc1ccccc1N1CCOCC1	/	107	3	98
79	N#Cc1c(N)nc(SCC(=O)Nc2ccccc2)c(C#N)c1-c1ccccc1	98	/	24*	/
80	CCN(CC)C(=O)N1CCN(c2ccccc2)CC1	100	102	-5	104
81	CSc1nc(-c2ccccc2)cn1-c1cccc(Cl)c1	105	89	/	72
82	O=C(Cc1ccccc1)Nc1ccc(-c2cn3ccsc3n2)cc1	/	99	-9	97
83	C=CCC(CC=C)(CNC(=O)C(=O)Nc1cccc(C(F)(F)F)c1)c1ccccc1	105	96	21	96
84	Cc1cc(F)c(F)c(C(=O)N2CCCCCC2)c1Cl	105	98	9	77
85	CCOc1ccc(C2C3=C(CCCC3=O)NC3=C2C(=O)CCC3)cc1	102	109	/	91
86	COc1cc(OC)c(NC(=O)CN2CCCn3nc(C)cc32)cc1Cl	97	/	-17	/
87	O=C1CSCC(=O)N1c1cccc2ccccc12	99	99	-10	111
88	O=c1ccc(N2CCCN(S(=O)(=O)c3ccc(F)c(F)c3)CC2)nn1-c1ccc(F)cc1	105	/	-44	/
89	O=C(NC1CCCC1)N1CCC(n2c(C(F)(F)F)nc3cccnc32)CC1	98	/	-14	/
90	CCC(C(=O)Nc1ccc(OC)cc1)n1nc(-c2ccc(C)cc2)c2c(c1=O)CCCC2 (stereo unspecified)	98	/	-4	/

# Next section (four carried over from the part before).
No.	SMILES	GIV Gai3 FP	Sa growth 42C	HCMV NEC inh	Sa growth 42C second temp
87	O=C1CSCC(=O)N1c1cccc2ccccc12	99	99	-10	111
88	O=c1ccc(N2CCCN(S(=O)(=O)c3ccc(F)c(F)c3)CC2)nn1-c1ccc(F)cc1	105	/	-44	/
89	O=C(NC1CCCC1)N1CCC(n2c(C(F)(F)F)nc3cccnc32)CC1	98	/	-14	/
90	CCC(C(=O)Nc1ccc(OC)cc1)n1nc(-c2ccc(C)cc2)c2c(c1=O)CCCC2 (stereo unspecified)	98	/	-4	/
91	Cc1cccc(N2CCN(S(=O)(=O)c3ccc4c(c3)C(C)(C)C(=O)N4C)CC2)c1C	100	/	-6	/
92	COc1ccccc1OCC(=O)NN	103	88	-22	84
93	Cc1c(C)n(CC(O)CN2CCN(CC(O)Cn3c(C)c(C)c4ccccc43)CC2)c2ccccc12 (stereo unspecified)	102	103	-23	83
94	O=C(O)C1Cc2[nH]cnc2C(c2ccccc2)N1 (stereo unspecified)	/	105	-8&-6	89
95	COc1ccc2ccccc2c1CN1CCN(C(=O)c2ccncc2)CC1	104	96	-8	97
96	COC(=O)c1ccccc1NC(=O)c1sc2nc(C)cc(C)c2c1NC(=O)c1ccccc1Cl	107	94	-14	82
97	O=C1CC(N2CCSC2=S)C(=O)N1c1cccc(Cl)c1Cl (stereo unspecified)	/	93	-43	90
